Source: PubChem (National Center for Advancing Translational Sciences (NCATS))
Cruzain inh Det: blocks cruzain activity in presence of Triton detergent. P25779. purified cruzain, Z-FR-AMC fluorescence, 0.01% Triton. Potency, µM, for inactives: max response, negative = inhibition, most hits filed as inhibitors. actives 0.43% (n = 200,000). AID 1478; active = well fitted curve in the direction sought with a large enough effect; inconclusive = small, poorly fitted or top-dose-only effect, or another doubt; inactive = no such curve, though single readings can be large; an effect the other way counts as inactive or inconclusive;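 also: plate controls were neutral wells for no effect and buffer without enzyme for full effect; nearly all actives have a fitted effect of over 40% in size; top concentration of the series not given in the record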
Target sequence (P25779 123-467 limits assumed): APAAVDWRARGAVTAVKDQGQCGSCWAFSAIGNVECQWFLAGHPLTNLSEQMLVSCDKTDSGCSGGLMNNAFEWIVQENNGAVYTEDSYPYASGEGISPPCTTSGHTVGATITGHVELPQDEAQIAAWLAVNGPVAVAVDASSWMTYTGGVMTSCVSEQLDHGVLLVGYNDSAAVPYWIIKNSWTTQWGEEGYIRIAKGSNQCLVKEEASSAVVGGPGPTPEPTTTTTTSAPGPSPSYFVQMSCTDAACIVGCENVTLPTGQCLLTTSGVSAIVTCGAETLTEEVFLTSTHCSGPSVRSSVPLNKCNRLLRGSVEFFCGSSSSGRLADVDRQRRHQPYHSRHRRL
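Sodium acetate buffer (100 mM, pH 5.5) containing 5 mM DTT and 0.01% Triton X-100 hosted 1.5 nM cruzain and test compound for 15 min at room temperature. Cleavage of 2 uM Z-FR-AMC was then tracked by fluorescence.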
RE007 growth inh: less growth of the S. pombe RE007 Vpr strain; S. pombe RE007 Vpr strain, BacTiter-Glo ATP luminescence, 24 h; control for the full effect not named in the record; Potency, µM (top dose mostly 92.2 µM), without a hit: at the top dose activity change, negative = less growth; actives 0.21% (n = 360,000); active = well fitted falling curve with a large enough effect; inconclusive = small, poorly fitted or top-dose-only effect; inactive = no such curve, though single readings can be large or run the other way;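 also: % is scaled to controls: 0 for no effect and ±100 for the full control effect; nearly all actives have a fitted effect of over 50% in size; the assay follows cell death caused by Vpr and the record does not say whether a fall means rescue or toxicity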
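Fission yeast RE007 carrying one integrated HIV-1 vpr copy, seeded at OD 0.01 in PMG+AL medium with 23 nL pinned compound. Grown 24 h at 30 degrees; viability read by BacTiter-Glo luminescence after 5 min.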
SARS PLpro yeast: blocks SARS-CoV papain-like protease in a yeast assay; S. cerevisiae expressing SARS-CoV PLpro, growth rescue; control for the full effect not named in the record; actives 0.19% (n = 330,000); AID 485353; Potency, µM (series often up to 32.9 µM), inactives show at the top dose activity, positive = growth rescue; also: 0% is about no effect; nearly all actives have a fitted effect of over 55% in size; growth read by luminescence after 48 h
NS1 inh: blocks influenza NS1 protein function; S. cerevisiae slowed by influenza A NS1, growth recovery by OD600; Potency, µM (titrated, usually from 46.1 µM), for the others: at the top dose activity, positive = more growth; actives 0.4% (n = 270,000); also: actives are rising curves; nearly all actives have a fitted effect of over 50% in size
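Recovery from NS1-induced slow growth read by OD600 in budding yeast switched to galactose assay medium (pH 6.0, -URA) at 1:100 dilution. Compound 23 nl per well; the matching strain lacking NS1 serves as control.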
Marburg entry inh: inhibitors of Marburg virus binding or cell entry; Marburg virus pseudotyped entry inhibition, cell reporter; control for the full effect not named in the record; about a third of the inactives were read at about 46 µM; Potency, µM (titrated, usually from 37.8 µM), for the others: top-dose activity change, negative = inhibition, usual class: inhibitors; actives 1.8% (n = 300,000); AID 540276; active = well fitted inhibition curve with a large enough effect; inconclusive = small, poorly fitted or top-dose-only effect, or effect the other way; inactive = flat fitted curve, though single readings scatter; tested in HEK293 cells; about a fifth of its hits are not listed in these tables; also: % is scaled to controls: 0 for no effect and ±100 for the full control effect; luciferase read-out
StopGo reporter: FMDV 2A StopGo reporter, luciferase signal. human cells with a luciferase reporter of 2A StopGo recoding; control for the full effect not named in the record. Potency, µM (highest dose often 57.9 µM), inactives show at the top dose signal change, negative = less light. actives 1.2% (n = 410,000); active = well fitted falling curve with a large enough effect; inconclusive = small, poorly fitted or top-dose-only effect; inactive = no such curve, though single readings can be large or run the other way; tested in HEK293T cells; also: % is scaled to controls: 0 for no effect and ±100 for the full control effect; nearly all actives have a fitted effect of over 45% in size; luciferase light after 4 h
LASV entry inh: inhibitors of Lassa virus binding or cell entry | AID 540256 | Potency, µM (series often up to 37.9 µM), for inactives: at the top dose activity change, negative = inhibition, actives largely listed as inhibitors | actives 1.2% (n = 300,000) | Lassa virus pseudotype entry inhibition, cell reporter; control for the full effect not named in the record; active means well fitted inhibition curve with a large enough effect; inconclusive means small, poorly fitted or top-dose-only effect, or effect the other way; inactive means flat fitted curve, though single readings scatter; tested in HEK293 cells; also: % is scaled to controls: 0 for no effect and ±100 for the full control effect; nearly all actives have a fitted effect of over 50% in size; luciferase read-out
Cruzain noTriton: blocks cruzain activity in detergent-free assay | P25779 | purified cruzain, Z-FR-AMC fluorescence, no detergent | Potency, µM, without a hit: max response, negative = inhibition, usual class: inhibitors | actives 2.3% (n = 200,000) | AID 1476; active = well fitted curve in the direction sought with a large enough effect; inconclusive = small, poorly fitted or top-dose-only effect, or another doubt; inactive = no such curve, though single readings can be large; an effect the other way counts as inactive or inconclusive;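 also: plate controls were enzyme without inhibitor for no effect and buffer without enzyme for full effect; nearly all actives have a fitted effect of over 40% in size; top concentration of the series not given in the record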
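Purified cruzain at 1.5 nM, pre-incubated 15 min with compound at room temperature in 100 mM sodium acetate pH 5.5, 5 mM DTT, 0.00005% Triton X-100. Reaction started with 2 uM Z-FR-AMC; AMC fluorescence increase over 60 s gives rate.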
* hit, by the source's call; ? = inconclusive; / = no result given; & = joins results of further samples; ! = repeats disagree; [ ] = dose if it differs, or a comment. Unless noted, calls follow the shape of the dose curve; as a rule, active means well fitted rising curve with a large enough effect; inconclusive means small, poorly fitted or top-dose-only effect; inactive means no such curve, though single readings can be large or run the other way. Potency is read from the fitted curve at half-maximal effect.

SMILES	Cruzain inh Det	RE007 growth inh	SARS PLpro yeast	NS1 inh	Marburg entry inh	StopGo reporter	LASV entry inh	Cruzain noTriton
O=C(/C=C/c1ccc(S(=O)(=O)N2CCOCC2)cc1)NC(CO)C(O)c1ccc([N+](=O)[O-])cc1 (configuration not stated)	/	-0.3%	-4.3%	/	6.3%	-14.4%	0.9%	/
CC1(CC(=O)O)SC(=O)NC1=O (configuration not stated)	3.5%	-3.1%	6.7%	-2.5%	?	23.0%	4.4%	-9.7%
COc1ccc(N2CC3=C(C2=O)C(c2ccc(Br)cc2)NC(=O)N3C)cc1 (configuration not stated)	-1.0%	/	/	/	-35.3%[46.1 µM]	-29.7%	?	-5.9%
Cc1ccc2c(c1)-c1cc(C)nn1C(c1sccc1C)N2 (configuration not stated)	-5.5%	-12.4%	-22.4%	-42.3%	3.3%	12.8%	15.0%	-4.1%
O=C(N/N=C/c1cc2c(cc1Br)OCO2)c1ccccn1	/	11.1%	-1.2%	-7.3%	12.2%	37.5%[activator]	-1.9%	/
CCCC(=O)N1CCN(C2=NS(=O)(=O)c3ccccc32)CC1	0.7%	0.2%	-9.3%	8.6%	22.5%	-10.3%	20.3%	-9.2%
CCOC(=O)c1ccc(N2C(=O)c3n[nH]c(C)c3C2c2ccc(C(C)(C)C)cc2)cc1 (configuration not stated)	-1.8%	/	/	/	5.6%[46.1 µM]	-19.5%	?	-4.1%
COCCNC(=S)N/N=C(\C)c1ccc(C)c([N+](=O)[O-])c1	-20.3%	-6.3%	?	4.0%	-8.8%	-24.8%	-9.4%	5.1%
Cc1ccc(Cl)cc1NC(=O)c1cc(NC(=O)C2CCCCC2C(=O)O)ccc1N1CCOCC1 (configuration not stated)	/	5.5%	?	?	17.7%[46.1 µM]	3.2%	10µM*	/
COc1ccc(NS(=O)(=O)c2cccc(N/C(=N\S(=O)(=O)c3ccccc3)c3ccc(F)cc3)c2)cc1	-2.8%	-6.5%	9.2%	11.2µM*	?	8.9%	?	-4.6%
O=C(NC(=S)Nc1ccc(S(=O)(=O)NC2CCCCC2)cc1)c1cccs1	-3.0%	-0.1%	?	13.5%	-21.0%	5.2%	?	?
COc1ccc(-c2ocnc2C(=O)Nc2ccc(N3CCOCC3)cc2N2CCOCC2)cc1OC	/	-1.7%	-3.3%	16.4%	23.3%[46.1 µM]	-17.9%	/	/
C/C(Cn1nnc2ccccc21)=N\OC(=O)c1ccccc1C	-2.6%	28.4%	-1.1%	-7.7%	36.6%	3.5%	-4.8%	-10.3%
N#C/C(=N\O)c1nc2ccccc2[nH]1	-4.2%	-15.1%	-5.7%	19.1%	14.9%	-1.7%	1.9%	0.4%
CCc1c(C)c(C#N)c2nc3ccccc3n2c1NCc1ccccn1	/	12.2%	0.2%	-2.0%	-20.3%[46.1 µM]	-18.1%	14.2%[46.1 µM]	/
COc1ccc(NC(=O)c2ccc(CN(c3cc(Cl)ccc3C)S(=O)(=O)c3ccccc3)cc2)cc1OC	1.4%	-9.4%	6.0%	15.4%	4.11µM*	-11.9%	-18.1%	?
COc1ccc(CN(CCC(c2ccc3c(c2)OCO3)c2ccccc2OC)C(C)=O)cc1 (configuration not stated)	-5.1%	/	/	/	/	?	?	?
COc1ccc(-n2c(SCC(=O)c3ccccc3)nc3c([nH]c4ccccc43)c2=O)cc1	0.0%	/	/	/	/	-6.9%	-11.6%[46.1 µM]	6.5%
COc1ccc(OC)c(Nc2nc3ccccc3n3c(C)nnc23)c1	-0.8%	/	/	/	11.2%[46.1 µM]	-6.3%	10.4%[46.1 µM]	-0.7%
COc1ccc(N(C(=O)COc2ccccc2OC)S(=O)(=O)c2ccc(Cl)cc2)cc1	-2.4%	/	/	/	/	9.1%	?	-10.2%
O=C(Nc1ccccc1N1CCOCC1)c1ccc2c(c1)OCCO2	/	-7.4%	-0.9%	9.2%	/	-12.5%	/	/
CC(Sc1nc2ncc(Cl)cc2[nH]1)C(=O)Nc1ccc(C(N)=O)cc1 (configuration not stated)	/	-4.3%	22.4%	/	14.1%	-17.5%	6.7%	/
NC(=O)c1ccccc1NC(=O)c1ccoc1	/	-6.0%	0.2%	16.2%	4.2%[46.1 µM]	-3.7%	3.3%[46.1 µM]	/
Cc1ccc(-n2c(SCC(=O)NCc3ccco3)nc3sc(C)c(C)c3c2=O)cc1	1.4%	2.1%	3.8%	?	2.2%	13.9%	0.0%	-8.8%
Cc1ccc(Cn2cc(CCC(=O)NC3CCCCC3)c3ccccc32)cc1	-0.9%	/	/	/	/	-15.5%	-9.1%[46.1 µM]	-12.1%
COc1ccccc1/C=C1\SC(=O)N(CCC(=O)NCCCn2ccnc2)C1=O	/	6.2%	0.1%	6.1%	/	12.2%	/	/
S=c1[nH]nc(-c2cc3ccccc3o2)n1Cc1ccccc1	-11.7%	0.3%	4.4%	-1.1%	-2.0%	1.8%	23.8%	-16.7%
CC1CN(CCCCOc2ccc3ccccc3c2)CC(C)O1 (configuration not stated)	-0.5%	3.0%	-27.4%	-10.1%	?	-7.2%	-6.1%	-4.7%
O=C(O)c1ccc(N=NN2CCOCC2)cc1	-4.6%	3.6%	-17.8%	26.1%	7.9%	-0.1%	20.8%	-11.2%
O=C(c1ccc(CSc2ccccc2)cc1)N1CCCCCC1	-6.3%	-8.4%	16.7%	-56.5%	10.1%	18.1%	?	4.0%
CCOC(=O)N1CCN(CC(O)COc2ccc(C(C)C)c(C)c2)CC1 (configuration not stated)	/	2.7%	3.2%	-3.2%	/	-9.7%	/	/
CCN(CCCCN1C(=O)c2ccccc2C1=O)c1ccc2c(c1)C(=O)N(C)C2=O	-13.7%	3.9%	-1.3%	-16.9%	?	/	?	?
Nc1nnc(SCCOc2ccccc2)s1	6.0%	-19.2%	0.9%	5.9%	6.3%	30.9%[activator]	14.6%	2.3%
N/C(=C\C(=O)c1cc(Cl)ccc1O)C(Cl)(Cl)Cl	/	-8.4%	-3.9%	-61.4%	/	0.0%	/	/
COc1ccc(Cl)cc1NC(=O)CCN1C(=O)NC(C)(C)C1=O	/	9.4%	0.3%	/	-1.0%[46.1 µM]	-2.9%	11.0%	/
CCOC(=O)c1sc2nc(SC)nc(-c3ccccc3)c2c1N	3.2%	-2.1%	0.4%	-8.8%	0.0%	-3.4%	-0.6%	-17.4%
CCSc1nnc(NC(=O)[C@@H](NC(=O)c2cccc(C)c2)C(C)C)s1	-5.1%	2.4%	12.1%	-8.2%	-2.0%	1.2%	9.1%	-1.9%
Cc1nc2ccc([N+](=O)[O-])cc2c(=O)n1Cc1ccc(Cl)cc1	/	-10.1%	-3.8%	-3.5%	/	-19.9%	/	/
CCC(=O)Nc1c2c(nn1-c1ccc(C)cc1)CS(=O)(=O)C2	/	12.7%	2.0%	-5.0%	/	1.5%	/	/
O=C(O)C1CCCN(CCC=C(c2ccccc2)c2ccccc2)C1 (configuration not stated)	2.3%	3.5%[18.4 µM]	/	-8.3%	?	-8.1%&-9.3%&-23.8%	2.6%	0.5%
O=C(c1ccc(F)cc1)c1c[nH]c(C(=O)NCc2cccnc2)c1	-1.5%	3.0%	-5.1%	11.4%	-18.5%	?	-22.6%	-4.3%
COc1ccc(/C=C(/C(=O)Nc2ccccc2C(=O)NC(C)C)c2ccccc2)cc1	-6.1%	0.5%	-15.6%	10.0%	?	?	1.5%	6.5%
Fc1ccccc1/C=C1\CCCC2=C1Nc1ncnn1C2c1ccccc1F (configuration not stated)	-2.0%	/	-1.9%	5.1%	/	/	/	-4.2%
CCN(Cc1ccccc1)C(=O)CCCOc1ccccc1	-2.1%	4.8%	-2.9%	-102.1%	-0.4%	40.7%[activator]	12.7%	-0.6%
CC1CCc2c(sc3ncnc(SC(C)C(=O)NCC4CCCO4)c23)C1 (configuration not stated)	/	2.9%	1.2%	/	-29.1%[46.1 µM]	-20.8%	?	/
CN(C)c1ccc(C(=S)N2CCCCC2)cc1	/	5.5%	1.2%	0.7%	5.4%[46.1 µM]	13.3%	5.9%	/
CCCCCSc1nnc2c(n1)OC(c1cccn1C)N(C(C)=O)c1ccccc1-2 (configuration not stated)	-4.4%	6.1%	-5.5%	-47.4%	-3.8%&-2.5%	?	-18.5%	-2.3%
Cc1ccc(C2(c3noc(CN4C[C@@H](C)O[C@@H](C)C4)n3)CCCC2)cc1	/	10.8%	-0.6%	-1.4%	?	-21.4%	-23.9%[46.1 µM]	/
CC(=O)C1=C(C)NC2=C(C(=O)c3ccccc32)C1c1ccccc1 (configuration not stated)	/	2.3%	-0.7%	/	?	-24.7%	-14.6%[46.1 µM]	/
Cc1ccc2c(c1)sc1nc(=O)n(-c3ccc(Cl)c(Cl)c3)c(=O)n12	-2.2%&7.5%	-11.7%	-7.7%	14.1%	?	-7.4%&-15.0%	-14.4%[46.1 µM]	20µM*!
O=S(=O)(c1ccc(Cl)cc1)c1nc(-c2ccccc2F)oc1NCCN1CCOCC1	/	2.8%	-1.8%	-34.3%	-18.6%	-9.3%	?	/
O=C(NCc1ccco1)c1cnccn1	-2.5%	-4.7%	6.7%	7.6%	18.9%	3.6%	13.3%	-2.1%
O=C(Nc1cccc(Cl)c1Cl)c1cc(S(=O)(=O)NCc2ccc3c(c2)OCO3)ccc1F	0.1%	/	/	/	/	-2.8%	2.4%[46.1 µM]	-2.2%
O=C1CCCc2c1sc1nc3n(c(=O)c21)CCCCC3	-0.3%	2.5%	-12.9%	-5.6%	?	59.8%[activator]	3.8%	-15.9%
Cc1ccc(-c2n[nH]c(=S)n2/N=C/c2ccc(C)s2)cc1	3.5%	4.0%	-1.9%	12.8%	-10.1%	-6.0%	1.26µM*	-5.3%
